A1 apoptosis 2 – blocks A1, raising caspase activity. caspase activation, % (no concentration beside the values). MEF A1-2A-BIM cells, caspase-Glo luminescence, 3 h; percent of clofoctol response, DMSO zero. 24,000 tested, under 10 active. AID 2465; in the data active = caspase activation above about 5.9%;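 note: wells of about 30 µL received 50 nL stock; the first replicate is given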
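system = A1-2A-BIM-expressing MEF cells | quantity = 2500 MEF cells/well | dosing = 50 nL compound per well, pinned | schedule = overnight cell settling, then 3 h compound exposure, 37 °C | signal = luminescence from DEVD-luciferin Caspase-Glo reagent, 1:1 in 50 mM HEPES, 1 h RT | read-out = Caspase-3/7 activation, seen as rise in luminescence signal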
Starred values were filed as active, the others as inactive.

SMILES | A1 apoptosis 2
C[C@@H]1CN([C@@H](C)CO)C(=O)c2cccc(NC(=O)C3CCCCC3)c2O[C@@H]1CN(C)S(=O)(=O)c1ccc(Cl)cc1 | 1.1
C[C@H](CO)N1C[C@H](C)[C@H](CN(C)C(=O)Nc2cccc3ccccc23)Oc2ccc(NC(=O)C3CC3)cc2C1=O | -0.2
C[C@@H]1CCCCO[C@@H](CN(C)C(=O)c2ccncc2)[C@@H](C)CN([C@H](C)CO)C(=O)c2cc(NC(=O)Cc3ccccc3)ccc2O1 | 0.2
C[C@@H]1CN([C@@H](C)CO)C(=O)c2cc(NC(=O)c3ccncc3)ccc2O[C@@H](C)CCCCO[C@H]1CN(C)C(=O)CCC(F)(F)F | 1.2
C[C@@H]1CN([C@H](C)CO)C(=O)c2cc(NC(=O)CCCCCC(=O)Nc3ccccc3N)ccc2O[C@@H]1CN(C)S(=O)(=O)c1cn(C)cn1 | 0.2
C[C@H](CO)N1C[C@H](C)[C@@H](CN(C)Cc2ccc(C(F)(F)F)cc2)Oc2c(NS(=O)(=O)c3ccc(F)cc3)cccc2C1=O | -0.2
O=C(O)CCCCCC(=O)N/N=C/c1nccs1 | -0.2
Cc1noc(C)c1S(=O)(=O)Nc1ccc2c(c1)C(=O)N([C@@H](C)CO)C[C@H](C)[C@@H](CN(C)Cc1ccncc1)OCCCC[C@@H](C)O2 | 1.6
C[C@H]1CN([C@@H](C)CO)C(=O)c2cc(NC(=O)Nc3ccc4c(c3)OCO4)ccc2O[C@@H]1CN(C)S(=O)(=O)c1ccc(F)cc1 | -1.2
C[C@H](CO)N1C[C@H](C)[C@@H](CN(C)C(=O)Nc2ccc(F)cc2)Oc2ccc(NC(=O)C3CCCCC3)cc2CC1=O | -0.2
C[C@H]1CN([C@@H](C)CO)C(=O)c2cccc(NC(=O)Nc3cccc4ccccc34)c2O[C@H]1CN(C)Cc1ccc(C(=O)Nc2ccccc2N)cc1 | 0.7
Cc1noc(C)c1S(=O)(=O)N(C)C[C@@H]1Oc2ccc(NC(=O)C3CC3)cc2CC(=O)N([C@H](C)CO)C[C@H]1C | -1.5
C[C@@H]1CN([C@H](C)CO)C(=O)c2cc(NS(=O)(=O)c3ccccc3)ccc2O[C@@H](C)CCCCO[C@H]1CN(C)Cc1ccc(C(=O)O)cc1 | 0.6
CO[C@H]1O[C@H](CO)[C@@H](OC(=O)CCc2ccccc2)[C@H](OC(=O)c2cc3ccccc3[nH]2)[C@H]1OC(=O)c1cc2ccccc2[nH]1 | 0.3
C[C@@H]1CN([C@H](C)CO)C(=O)Cc2cc(NS(C)(=O)=O)ccc2O[C@@H]1CN(C)C(=O)NC1CCCCC1 | 0.8
C[C@H]1CN([C@@H](C)CO)C(=O)Cc2cc(NC(=O)Nc3ccccc3)ccc2O[C@H]1CN(C)C(=O)Nc1ccccc1 | 0.2
C[C@@H]1CN([C@@H](C)CO)C(=O)c2cc(NC(=O)Nc3ccccc3)ccc2O[C@@H](C)CCCCO[C@H]1CN(C)C(=O)CCC(F)(F)F | 1.7
C[C@@H]1CCCCO[C@@H](CN(C)C(=O)Nc2ccccc2)[C@H](C)CN([C@H](C)CO)C(=O)c2cc(N(C)C)ccc2O1 | -0.4
C[C@H](CO)N1C[C@H](C)[C@@H](CN(C)Cc2ccc3c(c2)OCO3)Oc2ccc(N(C)C)cc2CC1=O | 0.5
Cc1noc(C)c1NC(=O)Nc1cccc2c1O[C@H](CN(C)Cc1ccccc1)[C@H](C)CN([C@@H](C)CO)C2=O | -0.1
COC(=O)CCCCCCC(=O)N/N=C/c1cc(Br)c(O)c(Br)c1 | 0.7
O=C(C1=C[C@H](c2coc3ccccc3c2=O)C[C@H](OCCCCO)O1)N1CCCCCCC1 | 1.7
O=C(NO)c1cccc(C(=O)N/N=C/c2ccc(-c3ccccc3)c(F)c2)c1 | -8.1
C[C@H](CO)N1C[C@H](C)[C@@H](CN(C)C(=O)C2CC2)OCc2cn(nn2)CCCC1=O | 1.4
Cc1noc(C)c1NC(=O)Nc1cccc2c1O[C@@H](CN(C)S(=O)(=O)c1ccc(Cl)cc1)[C@@H](C)CN([C@H](C)CO)C2=O | -0.3

New compounds follow:
SMILES | A1 apoptosis 2
C[C@H](CO)N1C[C@H](C)[C@H](CN(C)S(=O)(=O)c2ccccc2)Oc2ncc(/C=C/c3ccccc3)cc2C1=O | -0.1
O=S(=O)(N[C@@H]1CCCN(Cc2ccc(OCCO)cc2)C1)c1ccc(Cl)cc1 | 0.4
O=C(NO)c1cccc(C(=O)N/N=C/c2ccccc2O)c1 | -2.3
COCCOC(=O)N1C(=O)[C@@]2(c3cc(C#Cc4ccc(OC)cc4)ccc31)[C@H](c1ccc(OCCO)cc1)N1[C@H](c3ccccc3)[C@H](c3ccccc3)OC(=O)[C@H]1[C@@H]2C(=O)NC[C@H](O)c1ccccc1 | -0.3
C[C@@H]1CN([C@@H](C)CO)C(=O)Cc2cc(NC(=O)NC3CCCCC3)ccc2O[C@@H]1CN(C)S(=O)(=O)c1cn(C)cn1 | -0.1
COc1ccc(S(=O)(=O)N(C)C[C@@H]2OCCCC[C@H](C)Oc3ccc(NC(=O)Nc4cccc5ccccc45)cc3C(=O)N([C@H](C)CO)C[C@H]2C)cc1 | 2.2
C=CCOC(=O)[C@H]1[C@@H]2C(=O)O[C@@H](c3ccccc3)[C@@H](c3ccccc3)N2[C@@H](c2ccc(OCCOC(=O)[C@@H]3C[C@@H]4C(=O)NCC(=O)N4[C@@H]3c3ccc(O)cc3)cc2)[C@]12C(=O)Nc1ccccc12 | 0.6
C[C@@H]1CN([C@@H](C)CO)C(=O)c2cccc(NS(=O)(=O)c3ccc(Cl)cc3)c2O[C@H]1CN(C)Cc1ccc(C(=O)O)cc1 | -0.2
COc1ccc(CN(C)C[C@@H]2Oc3ccc(NS(C)(=O)=O)cc3CC(=O)N([C@H](C)CO)C[C@H]2C)cc1 | -1.4
Cc1cc(C(=O)Nc2cccc3c2O[C@H](CN(C)C(=O)Nc2ccccc2)[C@H](C)CN([C@H](C)CO)C3=O)n(C)n1 | 0.3
C[C@H]1CN([C@@H](C)CO)C(=O)Cc2cc(NS(C)(=O)=O)ccc2O[C@H]1CN(C)C(=O)NC1CCCCC1 | 1.7
C[C@@H]1CN([C@H](C)CO)C(=O)Cc2cc(NC(=O)Cc3cn(C)c4ccccc34)ccc2O[C@H]1CN(C)C(=O)Nc1cccc2ccccc12 | -0.3
C[C@H]1CCCCO[C@H](CN(C)S(=O)(=O)c2ccc(F)cc2)[C@@H](C)CN([C@@H](C)CO)C(=O)c2cc(NS(=O)(=O)c3ccc(Cl)cc3)ccc2O1 | 0.4
CNC[C@H]1Oc2ccc(NC(=O)Cc3cn(C)c4ccccc34)cc2CC(=O)N([C@H](C)CO)C[C@H]1C | 0.6
C[C@H]1CN([C@@H](C)CO)C(=O)c2cccc(NS(C)(=O)=O)c2O[C@@H]1CN(C)C(=O)Nc1cccc2ccccc12 | -0.3
CC(C)NC(=O)Nc1cccc2c1O[C@H](CN(C)Cc1ccc(-c3ccccc3)cc1)[C@H](C)CN([C@H](C)CO)C2=O | -0.2
COC(=O)CCCCCCC(=O)N/N=C/c1c(O)ccc2ccccc12 | -0.7
C[C@@H]1CCCCO[C@@H](CN(C)S(C)(=O)=O)[C@H](C)CN([C@@H](C)CO)C(=O)c2cc(NC(=O)Nc3ccc(F)cc3)ccc2O1 | -0.8
COc1ccc(NC(=O)N(C)C[C@@H]2Oc3ccc(NC(=O)CCC(F)(F)F)cc3CC(=O)N([C@H](C)CO)C[C@H]2C)cc1 | -0.3
C[C@@H]1CN([C@@H](C)CO)C(=O)c2cc(NC(=O)Cc3cn(C)c4ccccc34)ccc2O[C@H]1CN(C)C(=O)Nc1cccc2ccccc12 | 0.6
C[C@@H]1CN([C@H](C)CO)C(=O)c2cc(NC(=O)Nc3cccc4ccccc34)ccc2O[C@@H]1CN(C)S(=O)(=O)c1ccc(Cl)cc1 | -1.1
C[C@H](CO)N1C[C@H](C)[C@@H](CN(C)S(=O)(=O)c2cccs2)OCCCC[C@H](C)Oc2ccc(NS(=O)(=O)c3ccc(Cl)cc3)cc2C1=O | -1.6
C[C@@H]1CN([C@H](C)CO)C(=O)c2cc(NC(=O)C3CCCCC3)ccc2O[C@@H]1CN(C)S(=O)(=O)c1ccccc1 | 1.4
COC(=O)CCCCCCC(=O)N/N=C/c1ccc(S(=O)(=O)O)o1 | -0.3
C[C@H]1CN([C@@H](C)CO)C(=O)c2cc(NC(=O)CCCN(C)C)ccc2O[C@H]1CN(C)C | -0.3

Among those listed so far, 2 have two or more sulfur atoms:
SMILES | A1 apoptosis 2
C[C@H]1CCCCO[C@H](CN(C)S(=O)(=O)c2ccc(F)cc2)[C@@H](C)CN([C@@H](C)CO)C(=O)c2cc(NS(=O)(=O)c3ccc(Cl)cc3)ccc2O1 | 0.4
C[C@H](CO)N1C[C@H](C)[C@@H](CN(C)S(=O)(=O)c2cccs2)OCCCC[C@H](C)Oc2ccc(NS(=O)(=O)c3ccc(Cl)cc3)cc2C1=O | -1.6

Part of the list above in another layout.
C[C@H]1CN([C@@H](C)CO)C(=O)c2cccc(NS(C)(=O)=O)c2O[C@@H]1CN(C)C(=O)Nc1cccc2ccccc12
  A1 apoptosis 2: -0.3
CC(C)NC(=O)Nc1cccc2c1O[C@H](CN(C)Cc1ccc(-c3ccccc3)cc1)[C@H](C)CN([C@H](C)CO)C2=O
  A1 apoptosis 2: -0.2
COC(=O)CCCCCCC(=O)N/N=C/c1c(O)ccc2ccccc12
  A1 apoptosis 2: -0.7

Other results follow:
SMILES | A1 apoptosis 2
CC(C)NC(=O)N(C)C[C@H]1Oc2c(NC(=O)c3ccncc3)cccc2C(=O)N([C@H](C)CO)C[C@@H]1C | 0.1
C[C@@H]1CN([C@@H](C)CO)C(=O)c2cc(NC(=O)c3ccncc3)ccc2O[C@@H]1CN(C)S(=O)(=O)c1cn(C)cn1 | -0.5
C[C@@H]1CN([C@@H](C)CO)C(=O)c2cc(NC(=O)C3CCCCC3)ccc2O[C@H]1CN(C)S(=O)(=O)c1cn(C)cn1 | 0.2
C[C@H](CO)N1C[C@H](C)[C@H](CN(C)C(=O)Nc2ccc3c(c2)OCO3)OCc2cn(nn2)CCCC1=O | 0.1
C[C@@H]1CN([C@@H](C)CO)C(=O)Cc2cc(NS(=O)(=O)c3ccccc3)ccc2O[C@@H]1CN(C)S(=O)(=O)c1cccs1 | 0.5
COc1ccc(S(=O)(=O)Nc2ccc3c(c2)CC(=O)N([C@@H](C)CO)C[C@@H](C)[C@H](CN(C)C(=O)Nc2ccc4c(c2)OCO4)O3)cc1 | -1.2
COc1ccc(S(=O)(=O)N(C)C[C@@H]2Oc3c(NC(=O)C4CCOCC4)cccc3C(=O)N([C@H](C)CO)C[C@H]2C)cc1 | -0.6
COc1ccc(NC(=O)N(C)C[C@@H]2Oc3c(NC(=O)Nc4ccc(C(F)(F)F)cc4)cccc3C(=O)N([C@H](C)CO)C[C@H]2C)cc1 | -1.3
COc1ccc(S(=O)(=O)Nc2ccc3c(c2)CC(=O)N([C@H](C)CO)C[C@@H](C)[C@@H](CN(C)S(=O)(=O)c2cccs2)O3)cc1 | -1.1
C[C@H](CO)N1C[C@H](C)[C@H](CN(C)S(=O)(=O)c2ccc(F)cc2)Oc2c(NS(=O)(=O)c3cccs3)cccc2C1=O | 1.9
CCCC[C@H]1OB(O)C[C@H]2C1=C(COc1ccccc1)C[C@H]1C(=O)N(Cc3ccccc3)C(=O)[C@H]12 | -0.3
C[C@@H]1CCCCO[C@H](CN(C)CC2CCCCC2)[C@H](C)CN([C@@H](C)CO)C(=O)c2cc(NC(=O)c3ccncc3)ccc2O1 | -0.2
C[C@H](CO)N1C[C@H](C)[C@@H](CN(C)C(=O)Nc2ccc(F)cc2)Oc2ccc(NC(=O)Nc3ccc(F)cc3)cc2C1=O | -0.8
C[C@@H]1CCCCO[C@H](CN(C)Cc2ccc(Cl)c(Cl)c2)[C@@H](C)CN([C@H](C)CO)C(=O)c2cc(N(C)C)ccc2O1 | 0.5
C[C@H](CO)N1C[C@H](C)[C@@H](CN(C)S(=O)(=O)c2cccs2)Oc2c(NS(=O)(=O)c3ccccc3)cccc2C1=O | 0.1
C[C@H]1CCCCO[C@H](CN(C)S(=O)(=O)c2ccccc2)[C@@H](C)CN([C@@H](C)CO)C(=O)c2cc(NC(=O)CCCN(C)C)ccc2O1 | -0.7
COc1ccc(S(=O)(=O)Nc2ccc3c(c2)C(=O)N([C@@H](C)CO)C[C@@H](C)[C@@H](CN(C)Cc2ccc(C(=O)Nc4ccccc4N)cc2)O3)cc1 | 0.0
C[C@H]1CN([C@@H](C)CO)C(=O)Cc2cc(NS(=O)(=O)c3ccc(F)cc3)ccc2O[C@@H]1CN(C)Cc1ccncc1 | -1.2
C[C@@H]1CCCCO[C@H](CN(C)C(=O)Cc2ccccc2)[C@@H](C)CN([C@H](C)CO)C(=O)c2cc(NC(=O)Nc3ccccc3)ccc2O1 | 1.8
C[C@@H]1CN([C@@H](C)CO)C(=O)c2cc(N(C)C)ccc2O[C@H]1CN(C)Cc1ccncc1 | 0.6
COCCCNC(=O)[C@@]1(Cc2ccccc2CN=[N+]=[N-])N=C(c2ccc(OCCCO)cc2)O[C@H]1c1ccccc1 | -0.9
C[C@@H]1CN([C@@H](C)CO)C(=O)c2cccc(NS(=O)(=O)c3ccc(Cl)cc3)c2O[C@H]1CN(C)C(=O)Nc1ccc(F)cc1 | 1.6

The list is partial; count on the stated rates, not on these rows.
